TRPV1 potentiator: potentiators of human vanilloid receptor 1 (TRPV1); TRPV1-expressing cells, Fluo-8 calcium influx, capsaicin EC20 potentiation; host cell line not named in the record; control for the full effect not named in the record; potentiation, % at 8.33 µM; actives 0.02% (n = 320,000); active means potentiation above 80%; inconclusive means 30% to 80%; inactive means below 30%; note: 0% is about no effect
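Cells expressing TRPV1 were dye-loaded with Fluo-8 and read kinetically: 10 s baseline, 3 min after compound (agonist portion), then 2 min after EC20 capsaicin (allosteric enhancer portion). Calcium-bound dye fluorescence at 480/520 nm.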
Six1-Eya2 inh: Six1/Eya2 interaction inhibition; Q15475+O00167; AlphaScreen GST-Six1/His-Eya2 binding, biochemical; stronger effect = lower value; control for the full effect not named in the record; activity change, % (test concentration not listed); actives 0.56% (n = 360,000); AID 651725; in the data active = activity change below about -65%; inconclusive = about -30% to -65%; inactive = above about -30%; note: % is set by controls: 0 for no effect and ±100 for the full control effect; compound concentration not given in the record
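GST-Six1 + His-Eya2 (5X stock: 250/500 nM); Tris pH 8.0, 300 mM NaCl, 0.05% BSA, 0.02% Tween 20; GSH donor/Ni acceptor beads; 1 h 37 °C dark; AlphaScreen readout.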
TRPML1 inh: inhibitors of human TRPML1 channel. Q9GZU1. TRPML1-inducible cells, Ca2+ dye fluorescence, FDSS; stronger effect = lower value; inhibition of EC80 agonist-evoked calcium signal. activity change, negative = inhibition, % (test concentration not listed). actives 0.02% (n = 390,000); in the data active means activity change below about -50%; inconclusive means about -30% to -50%; inactive means above about -30%;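 note: stimulus is agonist 54-4 at its EC80 concentration; % is set by controls: 0 for no effect and ±100 for the full control effect; compound concentration not given in the record; the text of the record puts the active cut at -80%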
Target sequence (Q9GZU1 whole entry, looked up): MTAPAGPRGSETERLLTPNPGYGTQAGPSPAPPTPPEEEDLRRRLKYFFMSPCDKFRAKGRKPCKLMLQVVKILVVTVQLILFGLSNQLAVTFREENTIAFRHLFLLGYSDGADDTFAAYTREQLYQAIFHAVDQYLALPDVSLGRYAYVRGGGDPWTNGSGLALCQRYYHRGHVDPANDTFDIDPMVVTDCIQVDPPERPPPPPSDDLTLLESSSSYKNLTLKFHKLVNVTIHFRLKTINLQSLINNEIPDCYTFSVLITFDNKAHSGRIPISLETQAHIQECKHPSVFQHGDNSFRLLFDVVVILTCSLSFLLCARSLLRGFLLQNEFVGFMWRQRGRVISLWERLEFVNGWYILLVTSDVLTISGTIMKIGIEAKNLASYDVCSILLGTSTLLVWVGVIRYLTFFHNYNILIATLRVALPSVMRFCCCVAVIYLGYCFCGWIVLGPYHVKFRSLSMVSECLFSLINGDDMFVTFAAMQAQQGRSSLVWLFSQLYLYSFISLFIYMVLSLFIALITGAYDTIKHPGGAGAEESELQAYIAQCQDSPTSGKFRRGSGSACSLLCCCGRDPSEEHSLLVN
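Tet-induced TRPML1-DL cells loaded with Ca8 no-wash calcium dye were read kinetically on FDSS. Compound addition was followed by EC80 agonist 54-4 (4 uM final); inhibition was read over 110 s.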
CtBP-E1A inh: blocks the CtBP interaction with E1A; AlphaScreen GST-E1A/His-CtBP binding, 1536-well; stronger effect = lower value; control for the full effect not named in the record; activity change, % (concentration not given with the values); actives 0.49% (n = 340,000); AID 651724; in the data active means activity change below about -65%; inconclusive means about -30% to -65%; inactive means above about -30%; note: % is set by controls: 0 for no effect and ±100 for the full control effect
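Steps: dispense buffer (Tris pH 8.0, NaCl 300 mM, TCEP 1 mM, BSA, Tween 20); add 5X protein mix (GST-E1A, His-CtBP, 125 nM each); pin 23 nL compound; 2 h at 37 °C, dark; add 5X beads (50 ug/mL); 1 h; read.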
TRPML1 ag: activates the human TRPML1 channel. Q9GZU1. TRPML1-expressing cells, Ca2+ dye fluorescence, FDSS; host cell line not named in the record; reference of the full effect not given here. activation, % (concentration not given with the values). actives 0.12% (n = 410,000). AID 624414; in the data active = activation above about 50%; inconclusive = about 30% to 50%; inactive = below about 30%; note: 0% is about no effect; the text of the record puts the active cut at 80%
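Agonist activity was taken from a 110 s kinetic Ca2+ dye read on the FDSS after pinning compounds onto TRPML1-DL cells. The cells were seeded at 1,500/well with Tet inducer, incubated about 16 h, then dye-loaded at room temperature.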
D2 PAM: positive allosteric modulators of human D2 dopamine receptor | P14416 | DiscoveRx D2 beta-arrestin cells, luminescence, 90 min; 100% = 57 uM dopamine signal | potentiation, % (no concentration beside the values) | actives 0.23% (n = 360,000); active = potentiation of 50% or more; inconclusive = 30% to 50%; inactive = 30% or less;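 note: compound concentration not given in the record; tested on top of an EC20 dose of dopamine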
Target sequence (P14416 whole entry, looked up): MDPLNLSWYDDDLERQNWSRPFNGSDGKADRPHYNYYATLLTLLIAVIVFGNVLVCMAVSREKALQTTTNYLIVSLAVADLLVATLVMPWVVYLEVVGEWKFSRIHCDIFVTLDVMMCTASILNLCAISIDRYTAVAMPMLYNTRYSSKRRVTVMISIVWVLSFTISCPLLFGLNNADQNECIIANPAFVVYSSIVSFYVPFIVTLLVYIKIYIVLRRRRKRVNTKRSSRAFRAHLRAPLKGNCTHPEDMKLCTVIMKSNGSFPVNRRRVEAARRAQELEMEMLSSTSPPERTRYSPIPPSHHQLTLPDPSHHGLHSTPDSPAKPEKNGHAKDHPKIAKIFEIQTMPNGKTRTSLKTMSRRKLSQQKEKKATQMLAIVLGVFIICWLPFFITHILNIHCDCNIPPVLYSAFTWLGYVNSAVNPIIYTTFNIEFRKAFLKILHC
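D2 cells co-treated with compound plus 50 nM dopamine (EC20) for 90 min at 37 deg C to detect potentiation. Beta-arrestin recruitment was read as enzyme-fragment luminescence after 1 h at ambient temperature. Full response was set by 57 uM dopamine.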
Numbers without * were called inactive; u = inconclusive; x = no result given.

Under each structure – TRPV1 potentiator	Six1-Eya2 inh	TRPML1 inh	CtBP-E1A inh	TRPML1 ag	D2 PAM
(1) Nc1nn2c(C(F)(F)F)cc(=O)[nH]c2c1N=Nc1cccc(F)c1
    8	-17	18	-6	2.1	2
(2) CCOc1cc(/C=N/NC(=O)c2ccncc2)cc(Cl)c1OS(C)(=O)=O
    -14	u	-21	u	-0.3	u
(3) Nc1ccc(C(=O)OCC(=O)N2CCc3ccccc3C2)cc1[N+](=O)[O-]
    5	-13	26	2	0.4	5
(4) Cc1nc(NCC2CCCO2)c2nnn(Cc3c(F)cccc3Cl)c2n1 (stereo unspecified)
    -2	0	-2	3	-1.5	-5
(5) O=S(=O)(Nc1cccc(Cl)c1)c1ccc(-n2cccn2)cc1
    -19	6	-9	-2	-0.1	-4
(6) O=C1c2ccccc2NC(c2ccccn2)N1c1ccc(Cl)cc1 (stereo unspecified)
    -2	-5	31	3	-0.8	-27
(7) O=C1c2ccccc2S(=O)(=O)c2cc(C(=O)N3CCN(c4ccc(Cl)cn4)CC3)ccc21
    x	-22	-18	x	0.5	3
(8) Cc1cccc(C(=O)OCC(=O)NCC2COc3ccccc3O2)c1 (stereo unspecified)
    3	-1	9	6	3.3	4
(9) Cc1ccc2nc(Nc3nc(C)cc(C(F)(F)F)n3)nc(C)c2c1
    2	5	-1	4	0.7	-5
(10) COc1ccc(C2(O)CCN(CCCCOc3ccccc3)CC2)cc1
    0	1	17	-11	3.4	-19
(11) COC(=O)CNc1nc(Cl)nc(NC2CCCCC2)n1
    0	1	-10	-8	-0.3	-6
(12) O=C(NC1C/C=C\C(c2ccccc2)N(c2ccccc2)C(=O)C1)OCC1c2ccccc2-c2ccccc21 (stereo unspecified)
    x	-14	-15	-17	0.4	x
(13) COc1ccc2nc(C)cc(NCCN3CCOCC3)c2c1
    -12	-1	21	-10	0.3	-3
(14) Cc1ccc(CNC(=O)CCc2ccc(S(=O)(=O)NC3CCCCC3)cc2)cc1
    1	8	36	-7	0.2	16
(15) Cc1ccc(/C=C/C(O)=C2/C(=O)N(C)C3(C)CC2c2ccccc2O3)cc1 (stereo unspecified)
    5	24	18	11	3.1	-1
(16) CCc1ccc(OCC(=O)Nc2ccc3c(c2)OCCO3)cc1
    17	2	24	7	2.4	-3
(17) COc1cccc(NC(=O)c2ccc(NCCCN3CC(C)CC(C)C3)c([N+](=O)[O-])c2)c1 (stereo unspecified)
    -8	-2	0	-6	0.4	-15
(18) COc1ccc(CNS(=O)(=O)NCc2ccc(OC)c(OC)c2)cc1
    1	4	18	3	-0.6	-7
(19) N#Cc1c(-c2ccc(F)cc2)ccnc1N1CCOCC1
    -10	7	11	7	0.0	-10
(20) COc1ccccc1N(CC(=O)NC(C)(C)C)C(=O)CCC(=O)Nc1nccs1
    -3	-2	x	x	x	9
(21) NS(=O)(=O)OCC1CCCCC1
    -3	0	22	3	-0.7	-9
(22) COc1ccc(N2CCN(C(=O)CSc3nnc(C4CC4)n3C3CC3)CC2)cc1
    x	5	-8	3	0.6	-6
(23) O=C(COc1ccc([N+](=O)[O-])cc1)Nn1cnnc1
    -6	4	-3	x	-0.4	-6
(24) COc1ccc(/C(C)=N/NC(=O)CNC(=O)COc2ccccc2)c(OC)c1
    -7	1	-13	0	-0.5	-7
(25) Cc1ccc(Cl)cc1NC(=O)CSc1nnc(C)n1-c1ccccc1
    13	-2	-5	3	1.3	-17
(26) CCc1ccc(C(=O)OCC(=O)c2c(N)n(CC(C)C)c(=O)n(C)c2=O)cc1
    7	1	3	-3	0.5	-2
(27) Cc1ccccc1CNC(=O)c1ccc(Cl)c([N+](=O)[O-])c1
    -12	-7	-1	-3	2.0	8
(28) CCC(C)(C)c1ccc(OCCCC[n+]2cccc(C)c2C)c(C(C)(C)CC)c1
    x	-2	-3	x	-0.4	-29
(29) Cc1cc(O)c(C(C)C)cc1NC(=O)c1cccc(Cl)c1
    0	-4	-3	-2	0.9	-22
(30) CC(=O)NC1(C(F)(F)F)NC(=O)N(C2CCCCC2)C1=O (stereo unspecified)
    -6	-1	-10	4	-0.3	-31
(31) CCOC(=O)C1CCN(c2cc3c(cc2NC(=O)c2ccccc2F)n(C)c(=O)n3C)CC1
    -17	0	9	-8	-0.5	5
(32) O=C(Cc1cccs1)Nc1nnc(C2CC2)s1
    8	-9	-4	-10	-0.4	0
(33) COc1ccc(OCc2nnc(SCC(=O)Nc3nnc(C4CC4)s3)n2C)cc1
    17	4	-5	1	-0.6	3
(34) C/C(=N\NC(=O)CN1CCN(Cc2ccccc2)CC1)c1cccs1
    -10	7	-18	0	1.2	-21
(35) Cc1c(OCC(=O)NCc2cccnc2)ccc2c3c(c(=O)oc12)CCC3
    11	-11	-2	x	1.0	-9
(36) CC1S/C(=N/N=C/c2cccs2)NC1=O (stereo unspecified)
    9	0	-12	-21	0.2	-12
(37) O=C(COC(=O)CSc1ccc([N+](=O)[O-])cc1)NC1CCCCCCC1
    -17	5	1	-11	-0.1	10
(38) O=C(NCC1CCCO1)c1ccc2ccccc2n1 (stereo unspecified)
    -12	1	19	5	0.6	10
(39) COc1ccc(NC(=O)Nc2ccon2)cc1OC
    8	0	-20	1	2.9	-6
(40) CCOC(=O)CSc1ncnc2c1cnn2-c1ccc(C)cc1C
    11	1	40	-14	3.2	-5
(41) COC(=O)c1cc2c(s1)-c1ccccc1CC2
    -1	34	-29	45	0.0	29
(42) COCCNC(=O)c1nn2c(C(F)(F)F)cc(-c3ccccc3)nc2c1Br
    x	-7	8	-4	-0.5	-7
(43) O=c1[nH]c2cc([N+](=O)[O-])ccc2c2ccccc12
    x	-1	-8	-24	0.3	-9
(44) Cc1cccc(C)c1-n1nnnc1C1(C)CCC(=O)N1CCc1ccc(O)cc1 (stereo unspecified)
    x	3	x	2	-0.3	x
(45) CCc1ccc(OC2=NS(=O)(=O)c3ccccc32)cc1
    -3	9	-2	x	0.7	-4
(46) COc1ccc(CCNC(=O)Cc2ccsc2)cc1
    -12	-2	-7	3	0.1	-16
(47) COc1cc(CCC(=O)OCC(=O)NCc2ccc(Cl)cc2)cc(OC)c1OC
    -16	6	30	-9	1.7	-2
(48) Nc1c(N(CCC2=CCCCC2)C(=O)c2ccccc2F)c(=O)[nH]c(=O)n1Cc1ccccc1
    -12	6	-18	1	-0.2	-1
(49) Cn1cc(CNC(=O)c2cc(-c3ccccc3)nc3ccc(Br)cc23)cn1
    -16	1	2	-5	-0.8	-4
(50) O=S1(=O)N=C2CCCCCN2C(c2ccc(Cl)cc2)N1 (stereo unspecified)
    -12	5	0	x	2.6	6
(51) CN(CCO)C(=O)C(c1ccccc1)c1ccccc1
    0	-3	-5	-11	-0.6	-3
(52) COC(=O)C(Cc1c[nH]c2ccccc12)NC(=O)c1ccccc1Br (stereo unspecified)
    u	11	-9	-5	0.6	-1
(53) CCCCC(=O)NCCc1cc2ccc(OC)cc2[nH]c1=O
    2	7	-1	-9	-0.6	2
(54) O=C(N/N=C/c1cccc2ccccc12)c1ccncc1
    -8	-11	8	x	-0.5	-5
(55) Cc1ccc(-c2nc(CS(=O)CC(=O)NCc3ccc(Cl)cc3)c(C)o2)cc1 (stereo unspecified)
    6	1	-1	3	0.0	-4
(56) CCOc1ccc(NS(=O)(=O)c2cc(C(=O)NCC3CCCO3)ccc2Cl)cc1 (stereo unspecified)
    5	-5	-6	9	1.9	-15
(57) Cn1c(=O)c2[nH]c(CCCc3ccc([N+](=O)[O-])cc3)nc2n(C)c1=O
    x	-2	4	-4	1.1	0
(58) CN(c1ccccc1)c1nc(N)c([N+](=O)[O-])c(N2CCOCC2)n1
    x	-7	8	0	-0.5	0
(59) O=C(Cn1cc([N+](=O)[O-])cn1)Nc1nc2ccccc2s1
    2	0	4	14	-0.1	-8
(60) CCOc1cc(C2Nc3cccc4cccc(c34)N2)ccc1O
    -2	-20	5	-2	-0.3	5

Other results follow.
Under each structure – TRPV1 potentiator	Six1-Eya2 inh	TRPML1 inh	CtBP-E1A inh	TRPML1 ag	D2 PAM
(61) CCCn1ccnc1SC(C)C(=O)Nc1c(C)n(C)n(-c2ccccc2)c1=O (stereo unspecified)
    -9	0	2	x	-0.8	-5
(62) O=C(O)C1C2C=CC(C2)C1C(=O)NCc1cccc(Cl)c1 (stereo unspecified)
    19	9	-6	11	-0.1	-5
(63) O=Nc1c(O)n(Cc2cccc(Cl)c2)c2ccccc12
    19	-5	45	-1	2.6	-9
(64) CCOc1cc(/C=C(/NC(C)=O)C(=O)O)cc(Cl)c1OCc1cccc(Br)c1
    20	-10	30	1	0.1	-8
(65) CCOC(=O)[C@@H]1[C@H]2COc3ccc(Br)cc3[C@@H]2N2C(=O)N(c3ccc(C)cc3)C(=O)[C@@]12C
    x	16	45	-1	-0.7	-6
(66) CN(C)c1cc(-c2ccc(Cl)cc2Cl)oc(=O)c1Cl
    13	1	8	x	-0.6	-17
(67) CCCNC(=O)C1(C)CCCN(Cc2ccc(C)cc2)C1 (stereo unspecified)
    x	5	x	5	-0.5	-11
(68) Cc1ccc(CN2CCNC(=O)C2CC(=O)O)cc1 (stereo unspecified)
    6	-3	-3	10	-0.3	-3
(69) O=C(Nc1ccnn1C1CCN(C2CCC2)CC1)c1ccccc1
    11	8	-8	-23	-0.2	-15
(70) O=C(COC(=O)C1CSC2(c3ccc(F)cc3)CCC(=O)N12)NC(=O)NC1CCCC1 (stereo unspecified)
    14	-5	1	14	-0.7	-34
(71) Cc1ccc(NC(=O)c2ccoc2C)cc1C
    -2	-11	-7	-2	-0.5	-20

Entries above that have a COOH group, in the order listed:
Under each structure – TRPV1 potentiator	Six1-Eya2 inh	TRPML1 inh	CtBP-E1A inh	TRPML1 ag	D2 PAM
(62) O=C(O)C1C2C=CC(C2)C1C(=O)NCc1cccc(Cl)c1 (stereo unspecified)
    19	9	-6	11	-0.1	-5
(64) CCOc1cc(/C=C(/NC(C)=O)C(=O)O)cc(Cl)c1OCc1cccc(Br)c1
    20	-10	30	1	0.1	-8
(68) Cc1ccc(CN2CCNC(=O)C2CC(=O)O)cc1 (stereo unspecified)
    6	-3	-3	10	-0.3	-3

Ordered by length of the SMILES (descending): some entries from above
Under each structure – TRPV1 potentiator	Six1-Eya2 inh	TRPML1 inh	CtBP-E1A inh	TRPML1 ag	D2 PAM
(70) O=C(COC(=O)C1CSC2(c3ccc(F)cc3)CCC(=O)N12)NC(=O)NC1CCCC1 (stereo unspecified)
    14	-5	1	14	-0.7	-34
(63) O=Nc1c(O)n(Cc2cccc(Cl)c2)c2ccccc12
    19	-5	45	-1	2.6	-9
(71) Cc1ccc(NC(=O)c2ccoc2C)cc1C
    -2	-11	-7	-2	-0.5	-20

Screening data as filed in PubChem BioAssay.
